# Ba CapD inh: blocks the Bacillus anthracis CapD enzyme. purified CapD enzyme, fluorescence intensity read-out; stronger effect = lower value; some hits fall short of the stated cut. z-score (test concentration not listed). 140,000 tested, 0.23% active. AID 492967;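 active = z-score under -4 in either of two replicates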;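 note: stock transfer was 100 nL into about 40 µL; score is relative to mean and spread of the plate; one replicate is shown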
# AID504770: growth inhibitors of E. coli YBA685 in a screen for V. cholerae RctB (chromosome II replication) inhibitors. E. coli YBA685 rctB-dependent plasmid, OD600 growth, 3 h; stronger effect = lower value. z-score (concentration not given with the values). 130,000 tested, 0.27% active;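 active = z-score under -2 on both plates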;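 note: wells of about 30 µL received 100 nL stock; score is relative to mean and SD of the test wells; the first replicate is given; strong numbers were not always called active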
# * marks the source's active call; other numbers are inactive results; . = not tested or not shown; & = joins results of further samples.
no.	SMILES	Ba CapD inh	AID504770
1	N#Cc1c(-n2ccnc2)cccc1-n1ccnc1	0.33	-0.6
2	Cc1ccc(OCc2ccccc2C(=O)O)cc1C	-0.59	0.7
3	CCCC(=O)Nc1ccc(-c2cn3ccccc3n2)cc1	0.54	-0.65
4	C=CCn1c(COc2ccccc2)n[nH]c1=S	0.09	-0.65
5	COc1cc(S(=O)(=O)Nc2ccccn2)ccc1Cl	.	0.75
6	CC1CCCN(C(=O)C(C)Nc2cc(Cl)ccc2N2CCOCC2)C1 (stereo not given)	.	0.15
7	Cc1cc(O)c(C=Nc2ccccc2)c(=O)o1	.	0.9
8	Cc1ccccc1SC(CC(=O)c1ccc2ccccc2c1)c1ccc(Cl)c(Cl)c1 (stereo not given)	0.43	.
9	CC(C)(C)C(=O)c1sc2nc(-c3cccs3)cc(C(F)(F)F)c2c1N	3.79	2.3
10	Cc1ccc(/C=N/NC(=S)NC2CCCCC2)o1	.	-0.25
11	Cc1nc2ccc(NC(=O)C3CCCC3)cc2s1	.	-0.45
12	CC(NC(=O)Cn1nc(-c2ccc(Cl)cc2)c2ccccc2c1=O)c1ccccc1 (stereo not given)	-0.405	-0.45
13	O=C(Nc1cccnc1)c1ccc(OCC2CCCO2)cc1 (stereo not given)	.	-0.45
14	COc1ccccc1/C=C/C(=O)NC1CCCC1	14	-0.4
15	O=C(c1cccs1)C(O)c1cccs1 (stereo not given)	-1.16&-0.715	-1.45

# Some of these compounds in order of formula weight, falling:
no.	SMILES	Ba CapD inh	AID504770
6	CC1CCCN(C(=O)C(C)Nc2cc(Cl)ccc2N2CCOCC2)C1 (stereo not given)	.	0.15
5	COc1cc(S(=O)(=O)Nc2ccccn2)ccc1Cl	.	0.75
3	CCCC(=O)Nc1ccc(-c2cn3ccccc3n2)cc1	0.54	-0.65
4	C=CCn1c(COc2ccccc2)n[nH]c1=S	0.09	-0.65
7	Cc1cc(O)c(C=Nc2ccccc2)c(=O)o1	.	0.9

# Next records
no.	SMILES	Ba CapD inh	AID504770
16	CC(=O)N1CCC(N(C(=O)C(c2ccccc2)c2ccccc2)C2CC2)CC1	-0.56	.
17	O=C(Cc1ccc([N+](=O)[O-])cc1)Nn1c(-c2ccc(Br)cc2)nc2ccccc2c1=O	-0.5	.
18	O=S1(=O)CC2(N3CCOCC3)CCCCCCC21 (stereo not given)	1.37	-0.8
19	Cc1cc(C)c(NC(=S)N(CCN2CCCCC2)Cc2ccco2)c(C)c1	0.695	-1.9
20	S=c1nc(C2CCCC2)nc2sccn12	.	1.45
21	COC(=O)c1ccc(N2C(=O)/C(=C/c3ccc(-c4ccc([N+](=O)[O-])cc4)o3)C=C2c2ccccc2)cc1	-0.82	.
22	COc1cc(Br)cc2c1OC1(C)CC2NC(=O)N1 (stereo not given)	.	0.8
23	CN(C)CC(O)Cn1c2ccc(Br)cc2c2cc(Br)ccc21 (stereo not given)	0.38	.
24	COC(=O)C1CN(CC(=O)Nc2cccnc2Cl)CCS1 (stereo not given)	.	-0.05
25	Cc1ccc(S(=O)(=O)NC2c3cccc4cccc(c34)C2Sc2ncccn2)cc1 (stereo not given)	-0.21	-0.15
26	CCN1c2cc(NC(C)=O)ccc2C(C)CC1(C)C (stereo not given)	-0.115	0.65
27	COc1cc(OC)cc(-c2nc3ccccc3c(=O)n2NC(=O)c2cc(OC)ccc2Br)c1	-0.38	.
28	O=C(O)CCSc1nc2ccccc2o1	.	-0.2
29	CCN1CCN(C(=S)NCC2CCCO2)CC1 (stereo not given)	.	-0.2
30	CN(C)C(=S)c1ccc(N(C)C)cc1	-0.97	-0.6
31	Cc1ccccc1COC(=O)NNC(=O)CNS(=O)(=O)c1cccc2nsnc12	-0.435	.
32	O=C(O)c1cccc2cccc(C(=O)O)c12	12.5	-0.55
33	O=C(NCc1cccc(C(F)(F)F)c1)c1ccccc1NC(=O)N(C1CC1)C1CCN(Cc2ccccc2)CC1	-0.31	.
34	O=c1ccc(-c2ccc(S(=O)(=O)NCC3CCN(CCc4cccs4)CC3)s2)n[nH]1	2.84	0.2
35	COc1ccc(CNCc2ccc(OC)cc2)cc1	-0.495	.
36	COC(=O)CSc1nnc2n(C3CCCCC3)c(=O)c3c4c(sc3n12)CCCC4	-0.165	.
37	COc1ccc(CCC(=O)C2(O)CCCCC2)cc1	-1.73	-0.45
38	COc1cccc(C(=O)NC(=O)c2ccccc2O)c1	0.315	-0.35
39	COc1ccc(OCC(O)CN2CCC(CN3C(=O)c4cccc5cccc(c45)C3=O)CC2)cc1 (stereo not given)	76.5	.
40	CC1(CO)COC(COc2ccccc2)=N1 (stereo not given)	.	-0.15
41	Cn1c2c(c(=O)n(C)c1=O)C(C(=O)Nc1ccc(Cl)c(Cl)c1)CC(=O)N2 (stereo not given)	.	0.05
42	CCCOC(=O)C1=C(C)OC23OC(N)=C(C#N)C12C(=O)c1ccccc13 (stereo not given)	.	-0.1
43	COC(=O)c1c(C)oc(C)c1S(=O)(=O)NCc1ccco1	-0.045	-0.25
44	COC(=O)C1(C(=O)OC)NOC2C(=O)N(c3ccc(Cl)cc3)C(=O)C21 (stereo not given)	-0.375	.
45	Cc1cccc(-c2nnc(-c3ccccc3)o2)c1	.	-0.4
46	COc1cccc(N/C(SCc2ccc(Cl)cc2)=C(/C#N)C(=O)NCc2ccccc2)c1	-0.37	.
47	Cc1ccc(NCC(O)CN2c3ccccc3Sc3ccccc32)c(C)c1 (stereo not given)	-0.615	-0.2
48	Brc1ccc(-c2csc(/N=C/N3CCCC3)n2)cc1	.	-0.45
49	CC(=O)NN=C1CCC(c2ccccc2)CC1 (stereo not given)	.	0.05
50	COc1ccc(OCC(=O)Nc2ccc(N(C)C(C)=O)cc2)cc1	-0.355	.
51	CCOc1cccc2c1OC(c1cc(OC)c(OC)c(OC)c1)N1N=C(c3cccnc3)CC21 (stereo not given)	-0.115	.
52	CC(C)CN(CC(C)C)CN1C(=O)c2ccccc2C1=O	0.315	0.75
53	O=C(COC(=O)C1CCCC1)c1ccccc1Br	0.33	1.05
54	Cc1nn(CC(C)C)c2sc(C(=O)NC3CC(C)(C)NC(C)(C)C3)cc12	.	-0.5
55	Cc1ccc2c(c1)CCCN2C(=O)NC1CCCCC1	0.2	1
56	Cc1ccc(S(=O)(=O)NN2CCN(C)CC2)s1	0.525	-0.25
57	CCC(=O)N1c2ccccc2NC2=C(C(=O)CC(c3cccc([N+](=O)[O-])c3)C2)C1c1ccc(OC)c(OC)c1 (stereo not given)	-0.005	.
58	Cn1ccnc1SCc1cn2ccccc2n1	0.8	-1.55
59	COc1ccccc1Oc1cccc(C)c1	0.05	0.05
60	CCn1cc(C(=O)O)c(=O)c2cc(F)c(N3CCN(C)CC3)cc21	7.68	-6.95*
61	N#CC1=C(N)SC(N)=C(C#N)C1c1ccncc1	-2.37	-1
62	Cc1oc(-c2cccs2)nc1CN1C(=O)CN=C(c2ccccc2)c2ccccc21	1.52	-0.5
63	CCOc1ccccc1N/C(SCc1ccc(C)cc1C)=C(/C#N)C(=O)NCCc1ccc(OC)c(OC)c1	0.055	.
64	COc1ccc(C2/C(=C(\O)c3ccc(Cl)cc3)C(=O)C(=O)N2CCCN2CCOCC2)c(OC)c1 (stereo not given)	-0.1	.
65	Cc1nc(N2CCCCC2)c2c(C)c(C(=O)N3CCN(c4ccccc4F)CC3)sc2n1	-0.77	.
66	Cc1ccc(Cl)cc1N1CCN(CCCNc2nn3nnnc3c3ccccc23)CC1	-1	0.05
67	CCN(CC)CCCNC(=O)c1sc2ncnc(N(C)c3ccccc3)c2c1C	-0.76	.
68	COc1ccc(-n2cc(C#N)c(N)n2)cc1	0.345	-0.55
69	CSc1nc(Sc2ccc(Cl)cc2)c(C#N)c(-c2ccccc2)n1	0.11	.
70	COc1ccc(OCCSc2nc(N)cc(N)n2)cc1	.	-0.95
71	O=C(/C=C/c1ccccc1)N1CCOCC1	0.455	1.35
72	Cc1ccc(/C=C(\C#N)C(=O)NCCc2ccccc2)o1	.	-0.9
73	CC(C)(C)NCC(O)COc1c(Br)ccc2c1sc1nc3n(c(=O)c12)CCCCC3 (stereo not given)	-0.75	1.2
74	COC(=O)C(NC(C)=O)(Nc1ccc(Cl)cn1)C(F)(F)F (stereo not given)	-0.185	.
75	Cc1sc2nc[nH]c(=O)c2c1C	.	-0.45

# (more compounds)
no.	SMILES	Ba CapD inh	AID504770
76	O=c1nc(-c2ccccc2)c2ccccc2[nH]1	4.55	1.45
77	O=C(Nc1ccc(C(F)(F)F)cc1)Nc1ccc(C(F)(F)F)cc1	-0.475	1.8
78	Cc1nc2c(-c3ccccc3)c(C)nn2c(C)c1CC(=O)N1CCCC1	0.07	0.05
79	CCOc1cc(C(=O)O)ccc1OCC(C)C	1.27	-0.5
80	O=C1CCCCCN1Sc1ccccc1	.	-0.5
81	COCc1[nH]nc2c1C(c1ccc(OC(=O)N3CCOCC3)c(OC)c1)C(C#N)=C(N)O2 (stereo not given)	-0.485	.
82	CCCC12CN3CC(CCC)(CN(C1)C3C(O)C(O)C(O)CO)C2=O (stereo not given)	-0.775	2
83	COc1ccc2cc(C#N)c(NC(C)C)nc2c1	70.6	-0.6
84	O=C(CSc1nc2c(sc(=S)n2Cc2ccco2)c(=O)n1-c1ccc(F)cc1)NCc1ccco1	-0.175	.
85	O=C(N=C1c2ccccc2CN1c1ccc(F)c(Cl)c1)c1ccco1	.	-0.5
86	CC(=O)NCc1ccc(C(=O)COC(=O)Cc2n[nH]c(=O)c3ccccc23)o1	.	0.2
87	Cc1ccc2nc(-c3ccc(NC(=O)c4c(O)c5cccc6c5n(c4=O)CC6)cc3)sc2c1	0.58	.
88	O=C(CCOc1ccccc1)Nc1nc2ccc(Br)cc2s1	0.31	2.55
89	CC(C(=O)O)N1C(=O)/C(=C/c2ccc(Cl)cc2)SC1=S (stereo not given)	-0.385	-1.05
90	CN1CCN(Cc2c(O)ccc3c(=O)c(Oc4ccc(C(C)(C)C)cc4)c(C(F)(F)F)oc23)CC1	-0.58	.
91	CN(C(=O)COC(=O)c1cc(S(=O)(=O)N2CCCCC2)ccc1N1CCOCC1)C1CCS(=O)(=O)C1 (stereo not given)	.	1.1
92	CCc1ccc(Nc2cc(C(=O)NCc3cccs3)c3ccccc3n2)cc1	-1.12	0.7
93	S=C(Nc1cccnc1)NC1CCN(Cc2ccccc2)CC1	-0.26	.
94	COc1cccc(-n2c(C)nc3c(cnn3-c3ccccc3Cl)c2=O)c1	-0.18	1.4
95	Nc1nc(-c2cccs2)c(C(=O)C(F)(F)F)s1	.	-0.4
96	COC(=O)c1cnc(NN2C(=O)C=C(C)C2=O)nc1C(F)(F)F	-0.14	-0.55
97	COc1ccccc1C(=O)NCC(c1cccnc1)N(C)C (stereo not given)	0.26	-0.5
98	O=C(CCNc1n[nH]c(=O)[nH]c1=O)N1CCOCC1	-0.235	-0.9
99	COc1ccc(C2CC(=O)N(CC(=O)c3ccccc3)c3ccccc3S2)cc1 (stereo not given)	-0.975	1.15
100	CCCn1c(CNS(=O)(=O)c2ccc(C)cc2)nc2ccccc21	0.98	0.05
101	CC(C)(C)OC(=O)C(C)(C)S(=O)(=O)c1ccc(C(F)(F)F)cn1	-0.35	0.25
102	CCOC(=O)c1c(-c2ccccc2)n(S(C)(=O)=O)c2ccc(NS(C)(=O)=O)cc12	.	1.75
103	O=C(C1CC1)N1CCc2cc(S(=O)(=O)Nc3cccc(F)c3)ccc21	0.115	-0.2
104	CC(C)(C)NC(=O)CN1CCCNCC1	.	0.95
105	O=S(=O)(c1ccccc1)N1CCCN(S(=O)(=O)c2ccccc2)CC1	-0.455	-0.1
106	CC1CCN(C(=O)COC(=O)c2ccc(C#N)cc2)CC1	0.77	-0.05
107	CCOC(C(=O)c1ccccc1)c1ccccc1 (stereo not given)	0.405	1.5
108	O=C(CC1NCCNC1=O)Nc1ccccc1 (stereo not given)	-0.085	0.45
109	CC(C)C(=O)Nc1nc(-c2ccccc2)c(C(=O)c2ccccc2)s1	-1.48	-0.1
110	CN(C)CC#Cc1cncc(C#N)c1	-0.585	-0.75
111	C=CCn1c(=N)n(CC(=O)c2ccc(-c3ccccc3)cc2)c2ccccc21	-0.44	-0.1
112	O=C(NCC1CCCO1)c1ccc(NS(=O)(=O)c2ccccc2)cc1 (stereo not given)	-0.895	2.55
113	Cc1onc(-c2ccccc2Cl)c1C(=O)Nc1c2c(nn1-c1ccc([N+](=O)[O-])cc1)CS(=O)(=O)C2	-1.33	.
114	Cc1cc(C(=O)C(F)(F)F)c(C)n1-c1ccccc1	0	.
115	CC(C)Cc1ccc(C(C)C(=O)Nc2cccc(-c3cnco3)c2)cc1 (stereo not given)	0.03	0
116	COc1ccccc1N=Cc1ccc(O)c2c1OC(N)=C(C#N)C2c1cccc([N+](=O)[O-])c1 (stereo not given)	-0.23	.
117	CCN(CC)c1nc2cc(OC)ccc2cc1C#N	12.8	0.45
118	COC(=O)c1c(C)oc2ccc(OCc3ccc(Br)cc3)cc12	-0.345	-0.8
119	Cn1nnc2c(NC3CC3)nc(Cc3ccc(Cl)cc3Cl)nc21	-0.195	0.65
120	CC(CC#N)C(=O)c1ccccc1 (stereo not given)	0.3	0.35
121	N#Cc1ccc(OCC(O)CS(=O)(=O)c2ccc(Cl)cc2)cc1 (stereo not given)	-0.385	.
122	N#CC(C(=O)C1CC1)=C1SCCCS1	-2.02	-1.3
123	O=c1c2cc(Cl)ccc2nc2n1CCC2	.	-0.1

# Random excerpt: four records from the list
no.	SMILES	Ba CapD inh	AID504770
1	N#Cc1c(-n2ccnc2)cccc1-n1ccnc1	0.33	-0.6
104	CC(C)(C)NC(=O)CN1CCCNCC1	.	0.95
93	S=C(Nc1cccnc1)NC1CCN(Cc2ccccc2)CC1	-0.26	.
44	COC(=O)C1(C(=O)OC)NOC2C(=O)N(c3ccc(Cl)cc3)C(=O)C21 (stereo not given)	-0.375	.

# Screening results (PubChem)

# Hits appear at their usual frequency. Share with any hit: about 0.37%.
